Bioassay records: PubChem, National Center for Advancing Translational Sciences (NCATS)
miR-21 FLuc: raises the signal of a miR-21 reporter. HeLa miR-21 FLuc reporter, luciferase, 48 h. Potency, µM (top dose mostly 38.3 µM), for inactives: at the highest dose reporter change, positive = more light. 340,000 tested, under 10 active. AID 2288; active = well fitted rising curve with a large enough effect; inconclusive = small, poorly fitted or top-dose-only effect; inactive = no such curve, though single readings can be large or run the other way;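 note: % of control where 0% means no effect; miR-21 action dims this reporter so a rising signal means less miR-21 action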
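Luminescence from a firefly luciferase reporter carrying a miR-21 binding site downstream, stably expressed under a CMV promoter in HeLa cells that make miR-21 endogenously, reports miRNA modulation after 48 h compound exposure up to approximately 40uM final.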
The depositor's hits bear a star; ? = inconclusive. These rows are one share of the data; count on the stated rates, not on these rows.

SMILES	miR-21 FLuc
COc1ccc(S(=O)(=O)c2c(Nc3ccc(C)cc3)sc(C(=O)c3ccc(C)cc3)c2N)cc1	13.2%
COc1cccc(NC(=O)N2CCN(C(=O)c3nsc4ccccc34)CC2)c1	-1.8%
CCc1nn(CC(=O)Nc2cccc(C)c2C)c(=O)c2cc3sccc3n12	-2.5%
COC(=O)c1c(NC(=O)c2nc(SCc3cccc(C)c3)ncc2Cl)sc2c1CCCC2	-2.3%
CCCN(CCC)c1ccc(C2N=C(N)Nc3nc4ccccc4n32)cc1 (stereo not drawn)	?
CCOC(=O)c1c(NC(=O)/C(C#N)=C/c2ccc(OC)cc2)sc2c1CCC2	-0.1%
COc1ccccc1CCNC(=O)Cc1c(C)c2c(cc(C)c3c(C)c(C)oc32)oc1=O	7.3%
Cc1ccc(C(=O)Nc2ccc(-c3nc4ccccc4s3)c(O)c2)c(C)c1	-53.5%
CC(C)Oc1ccccc1C1C=C(C(=O)O)Nc2ncnn21 (stereo not drawn)	-11.6%
COc1ccc(-c2c(C)nn3c(N4CCN(c5cc(Cl)ccc5C)CC4)cc(C)nc23)cc1OC	-0.6%
Cc1nc2nncn2c(NCc2ccc(Cl)cc2)c1C	?
O=C(NCc1ccccc1)c1ccc2c(c1)sc1nc(-c3ccc(F)cc3)cn12	-2.2%
O=C(Cn1c(=O)oc2ccccc21)NCc1cccc(Cl)c1	-11.9%
Cc1nn(-c2ccccc2)c2sc(C(=O)Nc3ccccc3Br)cc12	1.0%
COc1cccc(NC(=O)C2CCN(c3nnc(-n4c(C)ccc4C)s3)CC2)c1	0.5%
COc1ccc(CCNC(=O)c2cnn(-c3ccc(F)cc3)c2C2CCN(C(=O)OC(C)(C)C)CC2)c(OC)c1	17.2%
Cc1ccc(-n2nc(C(=O)N3CCN(c4ccc(F)cc4)CC3)c(=O)n(C)c2=O)cc1	0.0%
Cc1cc(C)c2c(=O)cc(CSc3nnc(-c4ccccc4)n3C)[nH]c2c1	-5.7%
COc1ccc(OC)c(C2CC(=O)Nc3c2c(=O)[nH]c2nc4ccccc4n32)c1 (stereo not drawn)	-8.2%
O=c1c2c3c(sc2n(Cc2cc(=O)n4ccccc4n2)c(=O)n1-c1ccccc1)CCC3	-2.3%
CCn1c(CN2CCC(C)CC2)nc2cc(NC(=O)c3ccccc3[N+](=O)[O-])ccc21	-1.3%
Cc1cc(OCC(=O)Nc2ccc(C(=O)OC3CCCCC3)cc2)ccc1Cl	5.6%
CCn1cc(/C=C(\NC(=O)c2ccc(OC)c(OC)c2)C(=O)NCCCn2ccnc2)c2ccccc21	-1.3%
COc1ccccc1NC(=O)c1sc2nc(N3CCOCC3)c3c(c2c1N)CC(C)(C)OC3	-2.6%
Cc1cc(C)c2c(=O)cc(CSCC(=O)Nc3nnc(C)s3)[nH]c2c1	-6.5%
CC(NC(=O)C1CCN(S(=O)(=O)c2ccc3c(c2)oc(=O)n3C)CC1)c1ccccc1 (stereo not drawn)	1.0%
COc1cc(OC)cc(C(=O)NCCc2csc3nc(-c4ccccc4F)nn23)c1	3.3%
Cc1ccc(Cn2cc(S(=O)(=O)c3cccc(Cl)c3)c(=O)c3cc(F)c(N4CCCCC4)cc32)cc1	0.1%
CSc1ccccc1OCc1cc(C(=O)N2CCC(Oc3cccnc3)CC2)no1	2.8%
CCOC(=O)c1nc(Nc2ccc(C(=O)OC(C)C)cc2)c2ccccc2n1	16.6%
O=C(CCS(=O)(=O)c1ccccc1)N(Cc1cccnc1)c1nc2c(F)cccc2s1	27.1%
CCOc1ccc(C(=O)Nc2ccc(-c3nc4cc(C(C)C)ccc4o3)cc2)cc1Cl	-10.5%
O=C(Nc1ccccc1)c1cccc(N2CCCS2(=O)=O)c1	-8.9%
CCc1ccc(NC(=O)[C@H](Cc2ccccc2)N2Cc3ccccc3C2=O)cc1	3.2%
COC(=O)c1ccccc1NC(=O)CSc1nc2nc(C)cc(C)n2n1	-5.7%
COC(=O)c1nc2n(n1)C(c1cccc(Cl)c1)C(C(=O)Nc1ccccc1OC)=C(C)N2 (stereo not drawn)	-16.5%
CCc1ccc(CNC(=O)CSCc2cnn(-c3ccccc3)c2-n2cccc2)cc1	3.4%
Cc1nn(C)c2c1c(C(F)(F)F)cc(=O)n2C(C)C(=O)NCCc1ccc(Cl)cc1 (stereo not drawn)	-3.3%
COc1cc(OC)c(NC(=O)C(CC(C)C)N2Cc3ccccc3C2=O)cc1Cl (stereo not drawn)	5.5%
CC(=O)N1CCc2c(sc3c2c(=O)n(-c2ccccc2)c(=O)n3Cc2cccc(C(F)(F)F)c2)C1	?
O=C(Nc1ccc(Br)cc1)c1ccc(F)c(S(=O)(=O)N2CCc3ccccc32)c1	24.4%
CCN(c1ccccc1)c1nnc(NC(=O)Nc2cccc(C(F)(F)F)c2)s1	0.2%
CCC(Sc1nnc(-c2ccc(OC)c(OC)c2)c(-c2ccc(OC)c(OC)c2)n1)C(=O)NC1CCCC1 (stereo not drawn)	-3.9%
O=C(NCCCN1CCN(c2ccccc2F)CC1)c1cc2c(s1)-c1ccccc1OC2	-2.1%
COc1ccc(N2CCN(C(=O)Nc3ccc(Cl)cc3)CC2)cc1	4.4%

The last 3 compounds of the part above open the next one:
SMILES	miR-21 FLuc
CCC(Sc1nnc(-c2ccc(OC)c(OC)c2)c(-c2ccc(OC)c(OC)c2)n1)C(=O)NC1CCCC1 (stereo not drawn)	-3.9%
O=C(NCCCN1CCN(c2ccccc2F)CC1)c1cc2c(s1)-c1ccccc1OC2	-2.1%
COc1ccc(N2CCN(C(=O)Nc3ccc(Cl)cc3)CC2)cc1	4.4%
CC(C)c1ccc(NC(=O)c2ccc(CN3CC(=O)N4CCCCC4C3=O)cc2)cc1 (stereo not drawn)	-5.2%
Cc1ccc(Cn2ccn(CC(=O)Nc3ccccc3C(F)(F)F)c(=O)c2=O)cc1	?
Cc1cccc(C)c1-n1ncc(C(=O)NCc2ccc3c(c2)OCO3)c1C1CCN(C(=O)OC(C)(C)C)CC1	-6.7%
Cc1cccc(-c2nc(SCC(=O)Nc3cc(C)on3)c3c(=O)n(C)c(=O)n(C)c3n2)c1	-4.4%
CCOc1ccccc1NC(=O)CSc1nc2c(oc3ccccc32)c(=O)n1-c1ccc(F)cc1	-10.9%
COc1cccc(NC(=O)CCC(=O)N2Cc3ccccc3Oc3ncccc32)c1	-2.3%
O=C(CSc1ncc(CO)n1Cc1ccc(F)cc1)NCc1ccco1	-2.4%
CCc1cccc(NC(=O)CSc2nnc(-c3cc4occc4n3C)n2-c2ccccc2C)c1	13.9%
CCCCc1nc2ccccc2n2c(-c3ccc(OC)cc3)c3c(=O)n(C)c(=O)n(C)c3c12	-8.6%
CC(C)Cn1cc(NC(=O)NCc2ccccc2Cl)c2ccccc2c1=O	-0.8%
Cc1nc(SCC(=O)Nc2ccc(Br)cc2)[nH]c(=O)c1Cc1ccccc1	8.2%
CCCCc1ccc(NC(=O)Cn2cnc3c2c(=O)n(C)c(=O)n3C)cc1	0.2%
COc1cccc(NC(=O)CSc2nc3c([nH]c4ccccc43)c(=O)n2-c2ccccc2)c1	-0.1%
O=C(NC1CCCC1)c1cc(Nc2cccc(C(F)(F)F)c2)nc2ccccc12	4.0%
CCOC(=O)c1cccc(NC(=O)c2cc3cc4ccc(C)cc4nc3o2)c1	-8.0%
Cc1ccc(Cl)cc1NC(=O)CCn1c(=O)c2cccn2c2cccnc21	-1.5%
COc1ccc(OC)c(CCNC(=O)c2c3c(nc4ccccc24)C(=O)N(C2CCCCC2)C3)c1	?
Cc1ccc(CNC(=O)C(=O)NCC(c2ccco2)S(=O)(=O)c2ccc(C)cc2)cc1 (stereo not drawn)	-12.9%
COc1ccc(C2NC(=O)NC(C)=C2C(=O)Nc2cc(C)cc(C)c2)c(OC)c1 (stereo not drawn)	-1.7%
CC(C)CN(c1ccccc1)S(=O)(=O)c1nnc(NC(=O)C2CCCCC2)s1	-47.1%
N#Cc1cccc(NC(=O)C2CCN(S(=O)(=O)c3ccc4[nH]c(=O)ccc4c3)CC2)c1	-0.7%
COc1cccc(NC(=O)C2CCN(c3nc4ccccc4nc3C(F)(F)F)CC2)c1	?
COc1ccc(CNC(=O)CSc2nc3ccccc3nc2Cc2ccccc2)cc1	0.7%
COc1ccc(-c2nc(C)c(CCNC(=O)c3ccc(C(F)(F)F)cc3)s2)cc1OC	-14.9%
Cc1cc(C)cc(NC(=O)CN(c2cccc(C)c2C)S(=O)(=O)c2ccccc2)c1	-2.4%
CC(C)C(=O)Nc1ccccc1OCc1cc(=O)n2ccccc2n1	-1.4%
CN1CCN(C(c2ccc(C(F)(F)F)cc2)c2cc(Cl)c3cccnc3c2O)CC1 (stereo not drawn)	?
CC(=O)c1cccc(NC(=O)C(C)n2c(=O)cc(C)c3c(C)nn(-c4ccccc4)c32)c1 (stereo not drawn)	-7.9%
N#Cc1cccc(Nc2ncnc3c2cnn3-c2cccc(Cl)c2)c1	-26.3%
Cc1ccc(CSc2ncc(Cl)c(C(=O)NCc3ccccc3)n2)cc1	-1.5%

Look-ups from above.
Entry of N#Cc1cccc(Nc2ncnc3c2cnn3-c2cccc(Cl)c2)c1 under miR-21 FLuc: -26.3%
Entry of CC(=O)c1cccc(NC(=O)C(C)n2c(=O)cc(C)c3c(C)nn(-c4ccccc4)c32)c1 (stereo not drawn) under miR-21 FLuc: -7.9%
Entry of N#Cc1cccc(NC(=O)C2CCN(S(=O)(=O)c3ccc4[nH]c(=O)ccc4c3)CC2)c1 under miR-21 FLuc: -0.7%

Later entries
SMILES	miR-21 FLuc
Cc1nn2c(-c3ccco3)ccnc2c1-c1ccc(Br)cc1	-21.5%
O=C(CSc1ncc2c(n1)-c1cc(Cl)ccc1N(Cc1ccccc1F)S2(=O)=O)Nc1cccc(C(F)(F)F)c1	6.3%
CC(=O)N1c2ccccc2C(=O)C1N1CCN(c2ccccc2)CC1 (stereo not drawn)	1.1%
O=C(CSc1ncc2c(n1)-c1ccc(Cl)cc1N(Cc1ccccc1)S2(=O)=O)Nc1ccc(F)c(F)c1	-0.1%
COc1ccc(CNC(=O)CSc2ncc3c(n2)-c2ccc(Cl)cc2N(Cc2ccc(F)cc2)S3(=O)=O)cc1OC	-0.7%
CC(C)CC(=O)NC1CC(=O)N(c2ccc3c(c2)OCCO3)C1 (stereo not drawn)	-0.8%
CCOc1ccc(NC(=O)CSc2ncc3c(n2)-c2cc(Cl)ccc2N(C)S3(=O)=O)cc1	6.1%
CCc1ccc(-c2[nH]c3c(c2-c2sc(C)c(C(=O)OC)c2O)c(=O)n(C)c(=O)n3C)cc1	0.0%
O=C(CSc1nc(-c2cccs2)cc(C(F)(F)F)n1)Nc1ccccc1Cl	11.6%
Cc1ccc(-n2ncc(C(=O)N3CCC(c4ccccc4)C3)c2C2CCN(C(=O)OC(C)(C)C)CC2)cc1 (stereo not drawn)	-5.1%
CCN(C(=O)CSc1nc(-c2ccc(C(C)C)cc2)no1)c1ccccc1	12.6%
COc1ccccc1NC(=O)CSc1nc2ccccc2c2nc(-c3ccccc3)nn12	-1.2%
CCOC(=O)N1CCC(NC(=O)c2cnn(-c3cccc(C)c3)c2-n2cccc2)CC1	8.8%
O=C(NCCCN1CCN(c2ccccc2F)CC1)c1ccc2nc(CCc3ccccc3)oc2c1	12.1%
CCOCCn1c(=O)c2c(nc3n2CCN3c2ccc(C)c(C)c2)n(C)c1=O	5.7%
CCN1CCc2nc3sc(C(=O)c4ccc(F)cc4)c(N)c3cc2C1	5.1%
Cc1ccc(-n2c(=O)c3ccc(C(=O)NCc4ccccc4Cl)cc3n(CC(=O)Nc3cccc(F)c3)c2=O)cc1	-10.7%
COc1ccccc1NC(=O)c1sc2nc(-c3cc4cc(Cl)ccc4oc3=O)[nH]c(=O)c2c1C	0.0%
COc1cc(Cl)c(C)cc1NC(=O)c1sc2nc(C)cc(C)c2c1N	0.1%
CCC(C)NC(=O)Cn1c(=O)n(CC2CCC(C(=O)NC)CC2)c(=O)c2sccc21 (stereo not drawn)	-2.2%
CCc1ccc(NC(=O)CC(c2ccc(C)cc2)N2Cc3ccccc3C2=O)cc1 (stereo not drawn)	0.8%
CCc1ccccc1NC(=O)CSc1nc2c(oc3ccccc32)c(=O)n1-c1ccccc1F	0.3%
CCOc1ccc(NS(=O)(=O)c2ccc3c4c(cccc24)C(=O)N3)cc1	12.1%
CCN(c1ccc(C)cc1C)S(=O)(=O)c1nnc(NC(=O)CC(C)C)s1	-31.3%
CCc1noc(-c2ccc(NCc3ccccc3)c([N+](=O)[O-])c2)n1	2.3%
CC(=O)Nc1ccc(NC(=O)Nc2sc3nc4n(c(=O)c3c2C)CCC(C)CC4)cc1 (stereo not drawn)	-2.8%
Cc1cccn2c(Nc3ccc4c(c3)OCCO4)c(-c3ccc(Br)o3)nc12	3.1%
COc1ccc(C)cc1NC(=O)CSc1nc(=O)n(Cc2ccncc2)c2c1CCC2	6.8%
CCOC(=O)c1c(Oc2ccc(C(C)=O)cc2)nnc(-c2ccccc2)c1-c1ccccc1	-0.5%
Cc1ccc(C)c(NC(=O)N2CC=C(c3c[nH]c4ccccc34)CC2)c1	-16.0%
COc1ccc(-c2cc(C(=O)N3CCCCC3C)no2)cc1OC (stereo not drawn)	-58.3%
CCOc1ccc(S(=O)(=O)N2CCC(N3CCN(Cc4ccc(C)cc4)C(=O)C3=O)CC2)cc1	-0.5%
CCCN1CCc2nc(N3CCN(CC)CC3)ncc2C1	-3.8%
N#Cc1cccc(NC(=O)C2CCN(S(=O)(=O)c3ccc4c(c3)CCCN4C(=O)C3CCC3)CC2)c1	23.3%
O=C(Nc1ccc(Cl)cc1)C1CCN(c2nc3ccccc3nc2C(F)(F)F)CC1	18.1%
COc1ccc(C)cc1NC(=O)Cc1c(C(=O)O)c(C)cn1C	-6.1%

Quoted at random: 3 records from the list.
SMILES	miR-21 FLuc
N#Cc1cccc(NC(=O)C2CCN(S(=O)(=O)c3ccc4c(c3)CCCN4C(=O)C3CCC3)CC2)c1	23.3%
CCOc1ccc(S(=O)(=O)N2CCC(N3CCN(Cc4ccc(C)cc4)C(=O)C3=O)CC2)cc1	-0.5%
CCCN1CCc2nc(N3CCN(CC)CC3)ncc2C1	-3.8%
